Compound activity from PubChem BioAssay.
HSV augment = HSV replication enhancement; AID 1956; 220,000 tested, 0.005% active; maximum fold increase; HSV replication augmentation in cells, fold increase;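 active = peak rise of 1.5-fold or more in the series; tested in PC3 cells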;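 also: first round at 10 µM; read as green reporter fluorescence; hits show the peak of a series up to 25 µM; 1 = signal of infected wells without compound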
PKD1 inh = blocks activity of human protein kinase D1. Q15139. AID 797. inhibition, %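 (about 10 µM by stock and volumes)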. PKD1 kinase fluorescence polarization assay. 200,000 tested, 0.056% active;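 active = inhibition of 50% or more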;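 also: controls were vehicle for no effect and a reference inhibitor for full effect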
Insulin prom inh = TRM-6 insulin promoter activity inhibition; TRM-6 cells (human fetal islet line), insulin promoter-eGFP reporter, imaging; reporter expression induced with tamoxifen; inhibition, % at 2 µM; 130,000 tested, 0.9% active; AID 1273;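 active = inhibition above the mean plus 3 SD, with well images judged a real hit on visual review, cut at about 60% in these data, passing the limit was not always enough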
RGS16-Gao HTS = RGS16-Galphao interaction regulator (human); O15492+P09471; bead-based flow cytometry RGS16-Galphao binding, fluorescence; actives lie on both sides; binding response (% of control), % at 10 µM; 220,000 tested, 0.38% active; AID 1441;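 active = below 25% or above 175%, edge rows of some plates excepted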;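 also: Galphao activated by GDP with aluminum fluoride before binding; 100% = wells without compound and 0% = beads without RGS; some results beyond the cut were filed as inactive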
Target sequence (O15492 whole entry, looked up): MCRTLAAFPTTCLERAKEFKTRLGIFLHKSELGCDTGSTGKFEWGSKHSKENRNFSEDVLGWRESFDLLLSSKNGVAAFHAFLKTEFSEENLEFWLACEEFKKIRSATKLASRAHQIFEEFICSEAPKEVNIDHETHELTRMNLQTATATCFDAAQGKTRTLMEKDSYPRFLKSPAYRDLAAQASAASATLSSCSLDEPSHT
Target sequence (P09471 whole entry, looked up): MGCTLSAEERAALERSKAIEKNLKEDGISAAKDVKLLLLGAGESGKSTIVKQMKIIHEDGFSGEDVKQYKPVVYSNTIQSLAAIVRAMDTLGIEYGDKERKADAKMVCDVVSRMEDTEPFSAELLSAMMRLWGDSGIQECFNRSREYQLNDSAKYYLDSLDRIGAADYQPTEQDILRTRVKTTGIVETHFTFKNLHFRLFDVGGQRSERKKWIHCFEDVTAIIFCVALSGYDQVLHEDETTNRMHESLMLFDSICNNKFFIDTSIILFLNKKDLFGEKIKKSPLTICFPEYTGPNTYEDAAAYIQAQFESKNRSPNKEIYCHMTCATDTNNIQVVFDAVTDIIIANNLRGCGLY
GALR2 ag = activates the human galanin receptor 2 | GALR2-expressing cells, agonist activation read-out | activation, %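 (tested at 5 µM)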 | 140,000 tested, 0.48% active;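 active = above mean plus 3 SD of all compounds, about 5% in these data, not always enough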;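 also: 0% = vehicle buffer wells and 100% = reference agonist at full effect; tested in CHO reporter cells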
Target sequence (O43603 whole entry, looked up): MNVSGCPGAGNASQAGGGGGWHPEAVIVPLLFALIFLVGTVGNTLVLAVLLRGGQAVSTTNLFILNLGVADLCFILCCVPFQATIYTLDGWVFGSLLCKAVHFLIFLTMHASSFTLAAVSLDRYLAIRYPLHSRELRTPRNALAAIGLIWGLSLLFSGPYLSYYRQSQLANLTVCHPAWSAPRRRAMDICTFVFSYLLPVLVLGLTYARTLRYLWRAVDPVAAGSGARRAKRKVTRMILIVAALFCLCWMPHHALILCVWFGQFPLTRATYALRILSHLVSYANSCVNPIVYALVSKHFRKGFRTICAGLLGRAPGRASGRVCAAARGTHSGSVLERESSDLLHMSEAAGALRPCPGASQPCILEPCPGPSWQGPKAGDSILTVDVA
Insulin prom inh cell count = recorded beside Insulin prom inh, whose call it bears; normalized cell count, %; measured here: cell count, toxicity; reference of the scale not given here;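 cells exposed to compound for 48 h; stained nuclei by imaging scaled within each plate; lower means fewer cells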
HSV augment primary fold = also measured in HSV augment; calls as there; fold increase; compound at 10 µM; measured here: primary screen fold increase 10 uM; tested in PC3 cells;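 GFP signal in the first replicate; 1 = infected wells without compound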
Active calls of the source: *; i = inactive; . = no result given. Compounds as they come. About 1.3% of those tested had a hit in this group.

Values run as follows: HSV augment	HSV augment primary fold	PKD1 inh	Insulin prom inh	Insulin prom inh cell count	RGS16-Gao HTS	GALR2 ag
- CCCCC(=O)N1CCCC(C(=O)OCC)C1 (stereo not drawn)
 : i	0.9	-0.6	31.2	134.0	99.6	-3.7
- COc1cc(C(=O)OCC(=O)NC2CCS(=O)(=O)C2)c([N+](=O)[O-])cc1OC (stereo not drawn)
 : i	1.1	-5.9	64.3	101.8	99.2	.
- CCN(CC)c1ccc2c(C)c(CN3CCOCC3)c(=O)oc2c1
 : i	0.88	-6.8	.	.	100.2	6.2*
- CC1CCCC(C)N1C(=O)Cn1c(SCC(=O)NCc2ccc3c(c2)OCO3)nc2ccccc21 (stereo not drawn)
 : i	0.77	-5.4	.	.	103.4	-3.1
- Cc1cc(C)n(CC(O)COc2ccc(OCC(O)Cn3nc(C)cc3C)cc2)n1 (stereo not drawn)
 : .	.	-4.6	-360.0	74.5	.	-1.1
- O=C1CC(c2ccc(F)cc2)CC(O)=C1C=NCCN1CCNCC1 (stereo not drawn)
 : i	0.917	-6.0	31.0	139.7	102.7	-2.0
- Nc1ncnc(Sc2ccccc2)c1[N+](=O)[O-]
 : i	0.98	1.6	.	.	101.1	-0.5
- CCOC(=O)c1nnn(-c2nc(N3CCCC3)nc(N3CCCC3)n2)c1-c1ccccc1
 : .	.	-0.6	.	.	102.1	-3.2
- CCCc1cc(=O)n2[nH]c(NCc3ccccc3F)nc2n1
 : i	0.87	6.9	.	.	107.6	-1.7
- Cc1ccc(S(=O)(=O)Cc2nc3ccccc3c(=O)[nH]2)cc1
 : i	1.02	-8.2	3.6	94.2	99.1	-1.5
- Cc1ccc(/C=C/C(=O)c2ccccc(=O)c2O)cc1C
 : i	1.03	-1.5	14.3	71.5	100.0	-1.2
- Cc1cc(C)n(C2CC(=O)N(c3ccc(Cl)c(Cl)c3)C2=O)n1 (stereo not drawn)
 : i	1.02	.	.	.	107.3	.
- COc1ccc(N2CC(C(=O)Nc3cc(C)ccn3)CC2=O)cc1 (stereo not drawn)
 : i	0.94	.	.	.	96.2	.
- CCCN1C(=O)c2ccc(C(=O)NCc3ccco3)cc2C1=O
 : i	0.78	0.5	62.8	144.7	100.4	-0.7
- CCOC(=O)c1c(C)nc2sc3c(=O)n(-c4ccc(OC)cc4)cnc3c2c1-c1ccc(OC)cc1
 : i	0.99	-3.0	-3.6	52.4	110.6	-1.5
- CN1/C(=C/C(=O)c2ccc(Cl)cc2)Sc2cc3c(cc21)OCO3
 : i	1.19	-7.2	-52.4	85.5	86.3	1.7
- CCOC(=O)c1cc(=O)n2nc(-c3ccccc3F)nc2s1
 : i	0.92	12.4	85.7*	82.1*	96.6	-2.2
- O=C(Nc1cccc(Cl)c1)c1ccc(-n2cncn2)c([N+](=O)[O-])c1
 : i	0.85	7.2	-6.5	82.6	100.1	-2.3
- CCN(c1ccccc1)S(=O)(=O)c1ccc2[nH]cc(C(=O)NCCOC)c(=O)c2c1
 : i	0.99	-3.9	-22.2	161.2	101.4	0.5
- CCOP(=O)(OCC)C(NC(=O)Nc1c(C)cc(C)cc1C)c1ccccc1 (stereo not drawn)
 : i	1.02	-5.8	-21.4	120.0	99.9	.

(continued)
Values run as follows: HSV augment	HSV augment primary fold	PKD1 inh	Insulin prom inh	Insulin prom inh cell count	RGS16-Gao HTS	GALR2 ag
- Cc1n[nH]c(=S)n1-c1cccc(Cl)c1
 : i	0.95	-18.9	2.9	79.6	98.2	0.2
- O=C(OCC(=O)N1CCOCC1)c1ccc[nH]c1=O
 : i	0.89	-1.5	12.1	104.9	94.8	-3.2
- COc1ccc(C(=O)c2c[nH]cc2-c2ccccc2)cc1
 : i	0.99	5.9	0.0	98.4	112.8	0.5
- CCOC(=O)CSc1nc2sc(C)c(C)c2c(=O)[nH]1
 : i	1.03	-6.0	25.0	83.9	87.1	-0.9
- O=C(NNc1nc(-c2ccccc2)c2cc(Br)ccc2n1)c1ccc(S(=O)(=O)N2CCOCC2)cc1
 : i	0.97	-7.3	20.0	92.2	106.9	-0.3
- Cc1ncc(CO)c(/C=N/NC(=O)c2cc(Br)ccc2O)c1O
 : i	0.96	-6.4	35.7	114.1	107.1	.
- CSC1=NC(C)(C)C=C(/C=C/c2ccc(Cl)cc2Cl)N1
 : .	.	-6.4	7.1	50.7	141.4	.
- CCOc1cc(CNCCCN2CCOCC2)ccc1OCC(=O)Nc1cccc2ccccc12
 : i	0.78	-13.0	.	.	100.5	-1.2
- Clc1cccc(Cl)c1Cn1cnc2c(N3CCCCCC3)ncnc21
 : i	0.79	-9.0	-456.2	28.9	97.7	0.5
- CCCCC(=O)NC(c1ccc(OC)c(OC)c1)c1c(O)ccc2ccccc12 (stereo not drawn)
 : i	0.71	7.0	-48.3	127.0	94.6	-2.9
- O=C(NCc1ccco1)c1ccccc1NS(=O)(=O)c1cccs1
 : i	0.99	-6.5	21.1	70.7	98.1	-1.0
- CC(C)NC(=O)C1COc2ccccc2O1 (stereo not drawn)
 : i	0.9	5.2	.	.	104.5	.
- NC(=O)CSc1nnc(Cc2cccs2)n1C1CCCCC1
 : i	0.93	-3.9	-16.7	81.7	99.3	-1.7
- CSc1ccc(/C=N/N2CCN(Cc3ccccc3Cl)CC2)cc1
 : i	0.9	-4.5	-17.9	130.5	111.6	.
- O=C1c2ccccc2C2NC(=O)C3(CCCCC3)N12 (stereo not drawn)
 : i	1.03	-6.8	.	.	101.7	-1.0
- CC(=O)O[C@H]1C2OC(=O)C(C)=C2[C@@H]2OC(=O)[C@]3(CCC4OC41C)OC23 (stereo partly drawn)
 : i	0.67	2.8	4.8	118.2	97.4	-2.2
- Cc1ccsc1C(=O)OCC(=O)NCC1CCCO1 (stereo not drawn)
 : i	0.97	-9.2	-16.1	58.2	94.4	-2.1
- O=C(Nc1ccc(C(=O)O)cc1)/C(=C\C=C\c1ccccc1)NC(=O)c1ccc(Br)cc1
 : i	0.92	-1.7	28.6	100.6	100.5	.
- COc1ccc(-c2nn(CCC(=O)O)cc2/C=C2\SC(N)=NC2=O)cc1
 : i	0.95	3.7	13.3	117.8	96.5	-1.7
- NC(=O)CSc1nnc2n(-c3ccccc3)c(=O)c3c4c(sc3n12)CCCCC4
 : i	1.04	-5.0	-104.3	86.4	73.8	0.2

Next section:
Values run as follows: HSV augment	HSV augment primary fold	PKD1 inh	Insulin prom inh	Insulin prom inh cell count	RGS16-Gao HTS	GALR2 ag
- COc1ccc(C2C(C(=O)Nc3cccc(OC)c3)c3ccccc3C(=O)N2C)cc1 (stereo not drawn)
 : i	0.94	-9.5	.	.	104.8	.
- O=C1CC(N2CCN(Cc3ccc4c(c3)OCO4)CC2)C(=O)N1CCc1ccccc1 (stereo not drawn)
 : i	1.08	-0.5	-78.8	131.5	105.2	-0.4
- CCCCN(C)C(=O)c1nc2ccccn2c1CNCCCn1nnc2ccccc21
 : i	0.96	-5.5	.	.	100.2	.
- COC(=O)C1=C(C)N(Cc2ccco2)C(=O)/C1=C\c1ccc([N+](=O)[O-])cc1
 : i	1.01	-7.1	.	.	99.4	.
- O=C(CCc1ccccc1)NN1C(=O)C2C3C=CC(C3)C2C1=O (stereo not drawn)
 : i	1.06	2.7	.	.	98.2	.
- O=C(O)/C(=C\c1cccs1)c1ccccc1
 : i	0.92	-5.2	.	.	101.2	.
- O=C(CCC1CCCC1)Nc1ccon1
 : i	0.93	-6.5	70.0	119.8	103.8	-2.3
- CCCOc1ccc(OCC(=O)c2[nH]c(C)c(C(C)=O)c2C)cc1
 : i	0.93	4.4	-22.9	65.1	110.3	-1.0
- FC(F)(F)c1cnc(-c2cnc3c(-c4ccc(Cl)cc4)cnn3c2)c(Cl)c1
 : .	.	0.3	-12.5	78.7	97.0	-0.6
- Cn1c(CCN2CCCCC2)nc2cc([N+](=O)[O-])ccc21
 : i	1.24	-20.9	.	.	96.1	-1.1
- CCN(CC)S(=O)(=O)c1ccc(C2=NOC3(C2)N(C)c2ccccc2C3(C)C)cc1 (stereo not drawn)
 : i	0.78	-12.9	-45.1	106.2	107.2	-1.6
- CCCCNCC(O)(c1ccc(Cl)cc1)c1ccc(Cl)cc1
 : i	0.84	-7.4	.	.	99.9	.
- Cc1ccc(S(=O)(=O)c2nc(-c3cccs3)oc2SCC(N)=O)cc1
 : i	1.02	-6.1	.	.	99.4	-1.2
- CC(=O)C1=C(C)NC(SCC(N)=O)=C(C#N)C1c1ccco1 (stereo not drawn)
 : i	1.06	-3.4	.	.	102.9	.
- Cc1cc(C)nc(/N=C(\N)Nc2ccc(OCc3ccccc3)cc2)n1
 : i	0.7	-5.9	.	.	178.6	.
- Cc1cccc(Nc2nc(N)nc(CN3CCN(c4ccccc4F)CC3)n2)c1
 : i	1.01	-4.8	.	.	.	-3.2
- CCN1CCN(C(=O)c2ccc3c(=O)n(CCC4=CCCCC4)c(=O)[nH]c3c2)CC1
 : i	1.03	-11.1	6.5	100.0	89.6	-0.7
- CC(=O)OC(C(=O)NCc1ccco1)c1ccncc1 (stereo not drawn)
 : i	0.9	-5.0	15.2	91.0	95.5	-1.9
- Cc1ccc(C)c(NC(=O)CSc2nnc([C@@H]3CCCN3C(=O)OC(C)(C)C)o2)c1
 : i	1.01	1.0	-69.2	95.2	101.7	0.0
- COCCn1c(C)cc(C2=NNC(=NC3CC3)SC2)c1C
 : i	1.06	7.2	-75.0	104.9	99.9	.

Next part; the last four above are carried over.
Values run as follows: HSV augment	HSV augment primary fold	PKD1 inh	Insulin prom inh	Insulin prom inh cell count	RGS16-Gao HTS	GALR2 ag
- CCN1CCN(C(=O)c2ccc3c(=O)n(CCC4=CCCCC4)c(=O)[nH]c3c2)CC1
 : i	1.03	-11.1	6.5	100.0	89.6	-0.7
- CC(=O)OC(C(=O)NCc1ccco1)c1ccncc1 (stereo not drawn)
 : i	0.9	-5.0	15.2	91.0	95.5	-1.9
- Cc1ccc(C)c(NC(=O)CSc2nnc([C@@H]3CCCN3C(=O)OC(C)(C)C)o2)c1
 : i	1.01	1.0	-69.2	95.2	101.7	0.0
- COCCn1c(C)cc(C2=NNC(=NC3CC3)SC2)c1C
 : i	1.06	7.2	-75.0	104.9	99.9	.
- O=C(Nc1ccccc1-c1ccccc1)C(=O)Nc1ccccc1-c1ccccc1
 : i	0.98	.	.	.	98.6	.
- N#C/C(=C\c1c(N(Cc2ccccc2)Cc2ccccc2)nc2ccccn2c1=O)C(N)=O
 : i	0.7	5.5	17.5	129.6	104.5	-1.0
- O=C1NCCN/C1=C\C(=O)c1ccc(F)cc1
 : i	0.96	.	.	.	98.3	.
- CCn1cc(C(=O)NCC2CCCO2)c(=O)c2cc(F)c(N3CCN(C)CC3)cc21 (stereo not drawn)
 : i	0.97	0.4	.	.	122.7	0.9
- CC(C)NC(=O)CCCc1cn(C)c2ccccc12
 : i	0.9	-1.2	.	.	91.0	-2.6
- COc1ccc(CNC(=O)c2onc(C)c2Cl)cc1
 : i	0.96	8.8	.	.	104.9	-2.6
- Cc1ccc(C(=O)COC(=O)c2ccc3c(c2)C(=O)N(c2cccc4ncccc24)C3=O)cc1
 : i	0.94	-5.5	17.2	97.8	134.2	0.4
- Cc1ccc(SCc2nc(-c3cccnc3)no2)cc1
 : i	0.9	-4.8	8.3	125.0	99.8	-1.8
- CCCOc1ccc2oc(=O)c3c(c2c1)CCCN3C(=O)CN1CCN(c2ncccn2)CC1
 : i	0.58	-2.2	5.6	94.8	.	-1.8
- CCOC(=O)C1=C(C)NC(=O)NC1c1ccccc1OCc1c(F)cccc1Cl (stereo not drawn)
 : i	1.02	6.1	9.7	30.7	94.5	-3.0
- Cc1ccc(-n2c(SCC(=O)N3Cc4ccccc4CC3C(=O)O)nnc2-c2cccnc2)c(C)c1 (stereo not drawn)
 : i	0.96	4.8	.	.	100.4	-1.1
- S=C1NCCc2ccccc2C1c1ccccc1Cl (stereo not drawn)
 : i	0.877	-0.4	-468.8	76.1	36.5	-0.6
- O=C(CCN1C(=O)c2ccccc2C1=O)NCc1ccco1
 : i	0.53	-2.2	-31.5	46.3	94.6	-1.5
- CCC(C)C(NC(=O)C(C)NC(=O)CNC(=O)OC(C)(C)C)C(N)=O (stereo not drawn)
 : i	0.93	-0.3	-71.4	77.5	110.3	.
- CC(=O)c1ccc2c3c(cccc13)C(=O)N(CCc1ccccc1)C2=O
 : i	1.22	2.8	.	.	92.4	.
- CCn1c(SCC(=O)NC(=O)Nc2ccc3c(c2)OCCO3)nnc1-c1cccs1
 : i	0.96	-7.5	.	.	106.1	0.0
- O=C(CCSCc1ccc(Cl)cc1)NCc1ccco1
 : i	0.92	-5.5	-26.7	112.0	101.9	.
- O=C(Cc1ccc([N+](=O)[O-])cc1)N1CCc2ccccc2C1
 : i	0.96	0.9	0.0	149.6	101.7	-0.6
- CC(C)(C)[C@@H]1C=C(C(N)=O)O[C@H](OCc2ccc(CO)cc2)C1
 : i	0.86	.	.	.	102.8	.
